High-throughput results (PubChem)
AF4-AF9 inh – inhibitors of human MLL-AF4/AF9 interaction; inhibition, % at 10 µM; 350,000 compounds, 0.47% hits; P42568; AlphaScreen, biotin-AF4 peptide binding to FLAG-AF9;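 active = every replicate reaching a set inhibition limit, whatever the replicate mean, cut at about 25% in these data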;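 also: 0% = plate neutral control median and 100% = total signal loss; the record names both 10 and 1 µM as test concentration; the first replicate is given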
Target sequence (P42568 whole entry, looked up): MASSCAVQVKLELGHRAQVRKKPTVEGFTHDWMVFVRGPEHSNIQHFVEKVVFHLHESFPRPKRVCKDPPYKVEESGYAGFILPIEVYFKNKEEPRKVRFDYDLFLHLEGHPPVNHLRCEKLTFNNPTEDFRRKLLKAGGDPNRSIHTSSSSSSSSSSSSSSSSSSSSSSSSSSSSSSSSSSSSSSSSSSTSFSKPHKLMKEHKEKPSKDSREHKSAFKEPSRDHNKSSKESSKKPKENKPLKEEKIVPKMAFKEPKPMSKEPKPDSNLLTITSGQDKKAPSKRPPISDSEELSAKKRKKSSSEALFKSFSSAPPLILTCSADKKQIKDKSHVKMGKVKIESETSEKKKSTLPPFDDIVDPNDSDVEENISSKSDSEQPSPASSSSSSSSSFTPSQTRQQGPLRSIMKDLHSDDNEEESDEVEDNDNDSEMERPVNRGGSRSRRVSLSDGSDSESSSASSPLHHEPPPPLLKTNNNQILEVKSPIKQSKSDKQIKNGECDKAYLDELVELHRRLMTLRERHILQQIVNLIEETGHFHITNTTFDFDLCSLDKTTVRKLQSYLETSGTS
Numbers without * were called inactive; & = joins results of further samples.

Molecule	AF4-AF9 inh
COCC(=O)N(C)C[C@@H]1Oc2cc(C3=CCCC3)ccc2S(=O)(=O)N([C@H](C)CO)C[C@H]1C	-3.3
C[C@H]1CN([C@@H](C)CO)C(=O)c2cc(NS(=O)(=O)c3ccccc3)ccc2O[C@H]1CN(C)C(=O)Nc1ccc(F)cc1	-0.5
COc1ccccc1C#Cc1ccc2c(c1)[C@H]1[C@H](CCN1S(=O)(=O)c1cccc(C)c1)[C@H](CO)N2	-0.6
C[C@@H]1CN([C@@H](C)CO)C(=O)c2cc(NC(=O)c3ccncc3)ccc2O[C@@H](C)CCCCO[C@@H]1CN(C)Cc1ccc(C(F)(F)F)cc1	1.0
CCC(=O)Nc1ccc2c(c1)OC[C@@H](C)N(C(=O)C1CCC1)C[C@@H](C)[C@@H](OC)CN(C)C2=O	-0.5
C[C@@H]1CN([C@@H](C)CO)C(=O)c2cc(-c3ccncc3)cnc2O[C@H]1CN(C)C(=O)Cc1ccccn1	-2.3
COc1ccc2c3c([nH]c2c1)[C@H](CO)N(C(=O)Nc1cccc(F)c1)CC31CCN(S(=O)(=O)c2ccccc2)CC1	-1.6
COc1ccc(NC(=O)N(C)C[C@H]2Oc3ccc(NS(=O)(=O)c4ccc(Cl)cc4)cc3C(=O)N([C@H](C)CO)C[C@H]2C)cc1	-1.8
CC(C)NC(=O)[C@@]1(C)c2ccccc2C(=O)N(Cc2ccccc2)[C@H]1c1ccc(CO)cc1	-3.6
O=C(C[C@@H]1CC[C@H]2[C@@H](COC[C@@H](O)CN2Cc2ccc(Oc3ccccc3)cc2)O1)N1CCN(c2ccccc2)CC1	11.4
CO[C@@H]1CN(C)C(=O)c2ccc(NS(C)(=O)=O)cc2OC[C@@H](C)N(C)C[C@H]1C	3.5
CCC(=O)N1C[C@@H](C)[C@H](OC)CN(C)C(=O)c2ccc(NC(=O)Nc3ccccc3)cc2OC[C@H]1C	1.7
C[C@H](CO)N1C[C@H](C)[C@H](CN(C)C(=O)NC2CCCCC2)Oc2ncc(/C=C/c3ccccc3)cc2C1=O	4.3&2.6
C[C@@H]1CN([C@@H](C)CO)C(=O)c2c(c3ccccc3n2C)-c2ccccc2CO[C@H]1CN(C)S(=O)(=O)c1ccccc1	1.8
CO[C@@H]1CN(C)C(=O)c2ccc(NC(=O)c3cccc(F)c3)cc2OC[C@@H](C)N(C)C[C@@H]1C	-3.4
C[C@@H](NC(=O)C[C@H]1C=C[C@H](NC(=O)Nc2ccc3c(c2)OCO3)[C@H](CO)O1)c1ccccc1	-0.1
COc1ccc(CNC(=O)C2(C)Cc3c(-c4cccc(NC(C)=O)c4)ccnc3O2)cc1OC (stereo not given)	2.3
C[C@@H]1CN([C@@H](C)CO)C(=O)Cc2cc(NC(=O)Nc3ccc4c(c3)OCO4)ccc2O[C@@H]1CN(C)S(C)(=O)=O	-0.5
C/C=C/c1ccc([C@H]2[C@@H](CO)N3C(=O)CN(C(=O)Nc4cccc(OC)c4)C[C@H]23)cc1	1.7
CO[C@H]1CN(C)C(=O)c2cc(NC(C)=O)ccc2OC[C@H](C)N(C(=O)c2ccncc2)C[C@H]1C	4.5
CO[C@@H]1CN(C)C(=O)c2ccc(NS(=O)(=O)c3ccccc3C)cc2OC[C@H](C)N(S(C)(=O)=O)C[C@H]1C	-3.7
C[C@H]1CN([C@@H](C)CO)C(=O)c2cc(C#CC3CCCCC3)cnc2O[C@@H]1CN(C)S(C)(=O)=O	1.5
C[C@@H]1CN([C@@H](C)CO)C(=O)c2cc(NC(=O)C3CC3)ccc2O[C@H]1CN(C)Cc1ccc(C(F)(F)F)cc1	2.4
CCCNC(=O)N1C[C@H]2[C@@H](c3ccccc31)[C@H](CO)N2Cc1cc(F)ccc1F	-0.6
Clc1ccc2c(-c3ccccc3)nc(-c3cccs3)nc2c1	0.3

Compounds above that contain a CF3 group, in the order listed:
Molecule	AF4-AF9 inh
C[C@@H]1CN([C@@H](C)CO)C(=O)c2cc(NC(=O)c3ccncc3)ccc2O[C@@H](C)CCCCO[C@@H]1CN(C)Cc1ccc(C(F)(F)F)cc1	1.0
C[C@@H]1CN([C@@H](C)CO)C(=O)c2cc(NC(=O)C3CC3)ccc2O[C@H]1CN(C)Cc1ccc(C(F)(F)F)cc1	2.4

Looked up by compound from the entries so far:
Molecule	AF4-AF9 inh
CO[C@@H]1CN(C)C(=O)c2ccc(NS(=O)(=O)c3ccccc3C)cc2OC[C@H](C)N(S(C)(=O)=O)C[C@H]1C	-3.7
COc1ccc(NC(=O)N(C)C[C@H]2Oc3ccc(NS(=O)(=O)c4ccc(Cl)cc4)cc3C(=O)N([C@H](C)CO)C[C@H]2C)cc1	-1.8
C[C@@H]1CN([C@@H](C)CO)C(=O)c2c(c3ccccc3n2C)-c2ccccc2CO[C@H]1CN(C)S(=O)(=O)c1ccccc1	1.8
CCCNC(=O)N1C[C@H]2[C@@H](c3ccccc31)[C@H](CO)N2Cc1cc(F)ccc1F	-0.6

The listing continues:
Molecule	AF4-AF9 inh
C[C@H]1CN([C@@H](C)CO)C(=O)c2cccc(NS(=O)(=O)c3ccccc3)c2O[C@H]1CN(C)Cc1ccc(Cl)c(Cl)c1	3.2
C[C@@H]1CCCCO[C@@H](CN(C)Cc2ccc(C(F)(F)F)cc2)[C@@H](C)CN([C@H](C)CO)C(=O)c2cc(NC(=O)CCCN(C)C)ccc2O1	5.4
C[C@H](NC(=O)[C@@H]1[C@@H](CO)[C@@H]2Cn3c(cccc3=O)[C@H]1N2Cc1ccncc1)c1ccccc1	-0.8
CS(=O)(=O)N1CCCCN2[C@H](C1)[C@@H](c1ccc(-c3cccc(C#N)c3)cc1)[C@@H]2CO	-7.2
CN(C)c1ccc2c(c1)[C@@H]1C[C@@H](CC(=O)NCc3ccc(-c4ccccc4)cc3)O[C@@H](CO)[C@@H]1O2	18.8
COCC(=O)Nc1ccc2c(c1)[C@@H]1C[C@@H](CC(=O)NC3CCCCC3)O[C@@H](CO)[C@@H]1O2	1.1
COc1ccc2c3c([nH]c2c1)[C@H](CO)N(C(=O)Nc1ccc(F)cc1)CC31CCN(C(=O)Cc2ccccc2)CC1	-0.3
CCCc1c(-c2cccc(Br)c2)ncn1CCc1ccccc1OC	4.1
Cc1cn([C@H]2C[C@H](O)[C@@H](/C=C/C(=O)NCc3ccc4c(c3)OCO4)O2)c(=O)[nH]c1=O	-1.9
O=C(C[C@@H]1CC[C@@H]2[C@H](COC[C@@H](O)CN2C(=O)c2ccc3c(c2)OCO3)O1)NCCN1CCCCC1	2.9
O=C1NC[C@H](Cc2ccc(O)cc2)N(C[C@@H]2CCCN2C[C@H](Cc2ccccc2)N2C[C@H](Cc3ccccc3)N(CC3CCCCCC3)C(=O)C2=O)C1=O	1.6
Cc1noc(C)c1NC(=O)Nc1ccc2c(c1)CC(=O)N([C@@H](C)CO)C[C@@H](C)[C@H](CN(C)S(=O)(=O)c1cccs1)O2	7.2
Cc1noc(C)c1S(=O)(=O)N(C)C[C@@H]1Oc2ccc(NC(=O)NC(C)C)cc2CC(=O)N([C@@H](C)CO)C[C@H]1C	3.0
COc1ccc(NC(=O)Nc2ccc3c(c2)C(=O)N([C@@H](C)CO)C[C@@H](C)[C@@H](CN(C)C(=O)Nc2ccc(OC)cc2)OCCCC[C@@H](C)O3)cc1	-3.0
CC(C)NC(=O)Nc1ccc2c(c1)CC(=O)N([C@H](C)CO)C[C@H](C)[C@H](CN(C)Cc1ccc(C(=O)O)cc1)O2	-2.2
CCCCNC(=O)C1(C)CCN1C(=O)c1c(F)ccc(C)c1F (stereo not given)	-2.8
O=C([C@@H]1[C@@H](CO)[C@@H]2Cn3c(ccc(-c4ccc(F)cc4)c3=O)[C@@H]2N1Cc1cocn1)N1CCOCC1	0.2
C[C@H](CO)N1C[C@H](C)[C@H](CN(C)Cc2ccc(Oc3ccccc3)cc2)Oc2c(NS(=O)(=O)c3cn(C)cn3)cccc2C1=O	-3.0
CC=Cc1ccc2n(c1=O)C[C@H]1N[C@@H]2[C@@H](C(=O)NC2CCCC2)[C@@H]1CO (mixture of isomers)	-2.4
OC1c2c(F)cccc2N=C2CCCCN21 (stereo not given)	-3.3
C[C@@H]1CCCCO[C@H](CN(C)C(=O)Nc2ccc(C(F)(F)F)cc2)[C@@H](C)CN([C@H](C)CO)C(=O)c2cc(NC(=O)c3ccccc3)ccc2O1	-13.7
COc1ccc2c3c([nH]c2c1)[C@@H](CO)N(C(=O)Nc1ccc(F)cc1)CC31CN(S(=O)(=O)c2ccccc2)C1	-1.1
COc1ccc2c3c(n(C)c2c1)[C@@H](CO)N(Cc1nccs1)CC31CN(C(=O)CN(C)C)C1	-3.3
CN(C)CCCNC(=O)[C@@H]1[C@@H](CO)[C@@H]2Cn3c(ccc(C4=CCCC4)c3=O)[C@H]1N2Cc1cocn1	5.8
COc1ccc2c3c(n(C)c2c1)[C@H](CO)N(Cc1ccccc1F)CC31CN(C(=O)C2CC2)C1	2.5

New compounds follow
Molecule	AF4-AF9 inh
CC(C)C(=O)Nc1ccc2c(c1)C(=O)N(C)[C@H]1CC[C@@H](CC(=O)O)O[C@H]1CO2	-1.4
CNc1cccc(-c2cccc(O)c2)n1	-1.4
COCC(=O)N(C)C[C@H]1Oc2ncc(C#C[C@H](C)O)cc2C(=O)N([C@H](C)CO)C[C@@H]1C	-4.1
C[C@H](CO)N1C[C@H](C)[C@@H](CN(C)Cc2ccc(C(=O)Nc3ccccc3N)cc2)Oc2ccc(NC(=O)Nc3ccc(C(F)(F)F)cc3)cc2C1=O	0.6
Cc1ccccc1S(=O)(=O)NCC[C@H]1CC[C@H](NC(=O)C2CCCCC2)[C@@H](CO)O1	-1.1
O=C(C[C@@H]1CC[C@@H](NC(=O)Nc2ccc(C(F)(F)F)cc2)[C@@H](CO)O1)NCc1ccccn1	-0.1
C[C@@H]1CCCCO[C@@H](CN(C)CC2CC2)[C@@H](C)CN([C@H](C)CO)C(=O)c2cc(NS(=O)(=O)c3ccccc3)ccc2O1	-4.9
Cc1ccc(S(=O)(=O)N(C)C[C@@H]2Oc3c(NS(=O)(=O)c4cccs4)cccc3C(=O)N([C@H](C)CO)C[C@H]2C)cc1	-0.2
CO[C@H]1CN(C)C(=O)c2cc(NC(=O)c3nc4ccccc4s3)ccc2OC[C@@H](C)NC[C@@H]1C	1.2
O=C(CC1CC1)N1CC2(C1)[C@H](c1ccccc1)[C@@H](CO)N2Cc1ccccn1	-1.3
O=C(C[C@H]1C[C@H]2c3cc(NC(=O)C4CCOCC4)ccc3O[C@H]2[C@@H](CO)O1)NCc1ccncc1	-2.2
COc1cccc(S(=O)(=O)N[C@H]2CC[C@H](CC(=O)NCc3ccccc3)O[C@@H]2CO)c1	0.6
Cc1ccc(S(=O)(=O)N2CC[C@@H]3[C@@H](CO)N(C)c4ccc(-c5ccccc5F)cc4[C@@H]32)cc1	4.3
Cc1cccc(CN2CCN(C3CN(Cc4cn(Cc5cc(C)cc(C)c5)nn4)S(=O)(=O)C3)CC2)c1 (stereo not given)	1.0
CO[C@@H]1CN(C)C(=O)c2ccc(NC(=O)c3ccccc3F)cc2OC[C@H](C)NC[C@@H]1C	-3.4
CCCCC[C@@H](C)N1C[C@H](COCc2ccccc2)Oc2cc(N3CC[C@@H](O)C3)ccc2S1(=O)=O	1.3
CCC(=O)N1[C@@H]2Cn3c(ccc(-c4ccccc4)c3=O)[C@H]1[C@@H](C(=O)N(C)C)[C@@H]2CO	0.2
C[C@H]1CN([C@@H](C)CO)C(=O)Cc2cc(NS(C)(=O)=O)ccc2O[C@H]1CN(C)Cc1ccc(C(=O)Nc2ccccc2N)cc1	-2.6
COc1cccc(CNC(=O)C[C@H]2CC[C@@H]3[C@@H](COc4ccc(NC(=O)c5cccs5)cc4C(=O)N3C)O2)c1	-1.3
Cc1ccc(C)c(OCC(=O)N(Cc2ccccc2)c2c(N)n(Cc3ccccc3)c(=O)[nH]c2=O)c1	-0.4
COc1ccc(-c2cn(CCNC(=O)[C@H](Cc3ccccc3)NS(=O)(=O)c3ccc(C)cc3)nn2)cc1OC	-3.8
C[C@H]1CN([C@@H](C)CO)S(=O)(=O)c2ccc(C#CC3CC3)cc2O[C@H]1CN(C)C(=O)c1ccccc1	2.4
O=C(C[C@H]1C[C@@H]2c3cc(NC(=O)Nc4ccccc4F)ccc3O[C@@H]2[C@H](CO)O1)NCc1ccc2c(c1)OCO2	-11.4
COC(=O)C[C@@H]1C[C@H]2c3cc(NC(=O)Nc4ccccc4)ccc3O[C@H]2[C@H](CO)O1	2.7
Cc1noc(C)c1S(=O)(=O)N(C)C[C@H]1Oc2ccc(NC(=O)Nc3ccc4c(c3)OCO4)cc2CC(=O)N([C@H](C)CO)C[C@@H]1C	8.9

Additional records.
Molecule	AF4-AF9 inh
CO[C@@H]1CN(C)C(=O)c2ccc(NC(=O)Nc3ccc4c(c3)OCO4)cc2OC[C@H](C)NC[C@@H]1C	5.8
C[C@@H]1CCCCO[C@@H](CN(C)S(=O)(=O)c2ccc(Cl)cc2)[C@H](C)CN([C@H](C)CO)C(=O)c2cc(NC(=O)NC3CCCCC3)ccc2O1	-0.1
C[C@H]1CN([C@@H](C)CO)C(=O)Cc2cc(NC(=O)CCC(F)(F)F)ccc2O[C@@H]1CN(C)Cc1ccc(Cl)c(Cl)c1	-0.6
CCCN(C)C[C@H]1OCCCC[C@@H](C)Oc2ccc(NS(=O)(=O)c3ccc(OC)cc3)cc2C(=O)N([C@H](C)CO)C[C@@H]1C	-4.3
Cc1c(NS(=O)(=O)c2cc(C(=O)NCc3cccc(Cl)c3)ccc2Cl)c(=O)n(-c2ccccc2)n1C	-5.6
CN1C(=O)c2c(C(=O)Nc3ccc(Oc4ccncc4)cc3)[nH]c(-c3ccccc3)c2C1=O	-8.2
C[C@H](CO)N1C[C@H](C)[C@H](CN(C)C(=O)Nc2cccc3ccccc23)Oc2ccc(NC(=O)Nc3ccc(F)cc3)cc2CC1=O	-0.5

Look-ups from the results shown:
COc1ccc2c3c([nH]c2c1)[C@@H](CO)N(C(=O)Nc1ccc(F)cc1)CC31CN(S(=O)(=O)c2ccccc2)C1 in AF4-AF9 inh is listed with -1.1
CO[C@H]1CN(C)C(=O)c2cc(NC(C)=O)ccc2OC[C@H](C)N(C(=O)c2ccncc2)C[C@H]1C in AF4-AF9 inh is listed with 4.5

This is a subset; the hit share may differ from the screen's.
